# KCNQ2 pot: enhances the rat KCNQ2 potassium channel; O88943; CHO-K1 KCNQ2, FluxOR thallium flux fluorescence; active compounds read high; B-score at 10 µM; 310,000 tested, 0.54% active; AID 2239;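 active = fluorescence ratio B-score at least 3 SD of library B-scores, with initial fluorescence B-score within 3 SD, cut at about 5.3 in these data; same plate scores as AID 2156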;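 note: B-score of peak minus minimum over baseline fluorescence ratio after K+ and Tl+ stimulus; positive B-score means potentiation of KCNQ2 with more thallium influx and brighter signal; only the inactives scoring about 0 or higher are listed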
# Target sequence (O88943 whole entry, looked up): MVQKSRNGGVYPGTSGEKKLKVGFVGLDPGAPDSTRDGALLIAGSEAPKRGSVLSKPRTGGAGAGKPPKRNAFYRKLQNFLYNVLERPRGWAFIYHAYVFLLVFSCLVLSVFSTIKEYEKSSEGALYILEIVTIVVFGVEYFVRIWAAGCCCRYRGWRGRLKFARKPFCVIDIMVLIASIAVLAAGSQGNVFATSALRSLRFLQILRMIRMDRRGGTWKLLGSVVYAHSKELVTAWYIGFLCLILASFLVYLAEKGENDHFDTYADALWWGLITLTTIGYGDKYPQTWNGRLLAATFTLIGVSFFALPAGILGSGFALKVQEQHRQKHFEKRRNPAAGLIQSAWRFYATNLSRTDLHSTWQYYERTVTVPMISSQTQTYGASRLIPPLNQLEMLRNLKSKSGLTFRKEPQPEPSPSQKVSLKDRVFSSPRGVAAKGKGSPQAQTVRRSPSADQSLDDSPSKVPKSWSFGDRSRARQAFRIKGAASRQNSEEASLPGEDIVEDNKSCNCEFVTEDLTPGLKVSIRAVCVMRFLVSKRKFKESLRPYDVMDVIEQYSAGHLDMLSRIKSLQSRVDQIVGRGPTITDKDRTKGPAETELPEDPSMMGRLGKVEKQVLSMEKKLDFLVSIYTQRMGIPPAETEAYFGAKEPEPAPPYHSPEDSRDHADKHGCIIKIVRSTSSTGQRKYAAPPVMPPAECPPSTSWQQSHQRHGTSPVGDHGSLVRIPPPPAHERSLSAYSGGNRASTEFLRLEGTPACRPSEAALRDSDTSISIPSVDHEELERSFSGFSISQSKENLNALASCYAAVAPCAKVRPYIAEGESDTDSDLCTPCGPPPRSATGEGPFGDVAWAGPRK
# KCNQ2 pot baseline: further read-out of KCNQ2 pot, marked with its call; B-score; compound at 10 µM; measured here: initial fluorescence intensity artifact check;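 brightness before thallium and not channel activity; 0 = typical well and far values either way flag optical interference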
# * hit, by the source's call.
Compound	KCNQ2 pot	KCNQ2 pot baseline
CCOc1ccccc1N(CC(=O)NCC1CCCO1)C(=O)CNS(=O)(=O)c1ccccc1 (stereo not given)	0.91	0.41
COC(=O)C1=C(O)/C(=C\c2ccc(CNS(=O)(=O)c3ccccc3)o2)N=C1C	0.01	0.49
CCCOc1cccc(C(=O)N/N=C/c2ccoc2)c1	0.21	-0.03
CCCn1c(CN2CCN(c3cccc(Cl)c3)CC2)nc2c1c(=O)n(C)c(=O)n2C	1.3	2.2
O=C(CSc1nc2ccccc2c(=O)n1CC1CCCO1)Nc1ccccc1 (stereo not given)	0.09	-0.55
CN(C(=O)c1ccc(Br)o1)C1(C)CCS(=O)(=O)C1 (stereo not given)	0.61	0.28
Cn1c(SCC(=O)NCc2cccs2)nnc1-c1ccncc1	0.03	-0.02
COc1ccc(Nc2nc(N3CCOCC3)nc(N3CCOCC3)n2)cc1	0.01	1.4
CC1(C)CC(=O)C(CC2=C(N)CC(C)(C)CC2=O)=C(N)C1	0.64	-0.09
COc1ccccc1Nc1ccc(C(=O)NC2CCCCC2)cn1	1.4	0
COC(=O)C(C)n1cnc2c(nnn2-c2ccc(C)cc2)c1=O (stereo not given)	0.07	0.17
Cc1cccc(N(C(=O)CNC(=O)c2ccco2)C(C(=O)NC2CCCC2)c2cccnc2)c1C (stereo not given)	1.4	-0.52
Cc1[nH]c2ccccc2c1C(=O)NS(=O)(=O)Nc1ccc(F)cc1	1.5	0.72
COc1cc(/C=N/N2CCCCC2)cc([N+](=O)[O-])c1O	1.5	0.07
CN(C)c1nc(N)nc(CSc2nc3cc(Cl)ccc3o2)n1	1.4	-1.4
CN(C)S(=O)(=O)N1CCC(Oc2ccc(C(=O)N3C[C@@H]4CCC[C@H]3C4)cc2)CC1	0.36	-0.7
CC1(C)Cc2ccccc2-c2nnc(-c3ccccn3)n21	0.37	-2.4
O=C(NCCc1c[nH]c2ccccc12)c1ccc(S(=O)(=O)NCc2ccco2)cc1	0.72	-1.4
CC(Oc1ccc2c3c(c(=O)oc2c1)CCC3)C(=O)N[C@@H](Cc1ccccc1)C(=O)O (stereo not given in full)	0.25	0.92
c1ccc(-c2nc3ccccc3o2)nc1	0.77	-1.2
Cc1ccc(OCC(=O)NNC(=O)C2CCCO2)c(C)c1 (stereo not given)	1	-1.1
COc1ccc(-c2nnc(SCC(=O)N3CCCc4ccccc43)o2)cc1OC	0.18	-0.91
Cc1ccc(-n2c(SCC(=O)Nc3cccc(S(N)(=O)=O)c3)nc3ccccc32)cc1	1.1	-0.51
C/C(=N\Nc1ccc(Cl)c(Cl)c1)c1ccc(-n2ccnc2)cc1	2.6	-1.6
CCn1c(=O)c(C(=O)CN2CC(C)OC(C)C2)c(N)n(Cc2ccccc2)c1=O (stereo not given)	0.26	-1.2
O=C(O)CSc1nnc(-c2ccccc2)o1	0.37	-0.29
CS(=O)(=O)N1CCc2cc(C(=O)N3CCN(c4cccc(Cl)c4)CC3)ccc21	0.06	0.11
CN1CC2CCCC3(C1)C(=O)NC1(CCCCC1)N=C23 (stereo not given)	0.69	-0.9
CCOc1cc(C2C3=C(CC(C)(C)CC3=O)Nc3n[nH]c(C)c32)ccc1O (stereo not given)	0.03	1.3
CN(C)CC(C)(C)NS(=O)(=O)c1ccc(Cl)cc1	0.63	1.2
O=C(CSc1ncn[nH]1)N1CCN(S(=O)(=O)c2ccc(Cl)cc2)CC1	0.19	0.72
C=CCNC(=S)/C(=C(\[O-])c1ccc(Cl)cc1)[n+]1ccccc1	0.58	1.9
CC(C)CC(=O)N1CCN(Cc2ccc(Cl)cc2)CC1	0.14	1.5
CCOC(=O)CCCc1ccc(/C(C)=N/NC(N)=S)cc1	0.15	0.07
COc1ccccc1CCc1nnc(CCC(=O)NC(C)Cc2cccs2)o1 (stereo not given)	0.08	1.9
Cc1cccc2c(CC(=O)O)noc12	1.8	-0.82
CCc1nnc(NS(=O)(=O)c2ccc(NC(=O)c3cccc(OC(F)(F)C(F)F)c3)cc2)s1	0.48	-0.05
Cc1nn2cnnc2c(C)c1Cc1ccc(Cl)cc1	0.08	1.6
Cc1[nH]c(N=Nc2ccccc2)nc1N=Nc1ccccc1	2.1	0.88
Cc1cc(SCC(=O)N/N=C/c2ccc(O)c(O)c2)nc2ccccc12	2.7	0.91
Cc1cnc(C(=O)OCC(=O)Nc2ccc(C)c(S(=O)(=O)N(C)C)c2)cn1	0.17	-1.1
CC1(C)CC(=O)C2=C(C1)OC1=C(C(=O)CC(C)(C)C1)C2c1cc([N+](=O)[O-])cc([N+](=O)[O-])c1O	2.3	-0.22
COc1ccc(OC)c(S(=O)(=O)N(C)CC(=O)Nc2ccc3c(c2)OCO3)c1	0.19	-0.4
O=C(c1ccco1)N1CCC(c2nc3c(nnn3Cc3c(Cl)cccc3Cl)c(=O)[nH]2)CC1	0.04	0.5
C=C(c1ccc(OCCO)cc1)c1ccc(OCCO)cc1	0.44	-1
O=C(CNC(=O)c1ccc(Cl)cc1Cl)NCC(=O)Nc1ccccc1N1CCOCC1	1.6	-0.76
CC1=CCP(=O)(c2ccccc2)C1 (stereo not given)	0.67	-0.84
CCOC(=O)N1CCN(C(=O)CSCC(=O)N=c2sc3ccccc3n2C)CC1	0.79	-0.28
O=C(NC(=S)Nc1ccccc1N1CCOCC1)c1ccco1	0.95	-0.84
COc1ccc2nc(NC(=O)c3cc(S(=O)(=O)N4CCOCC4)ccc3C)sc2c1	0.13	0.01
COc1cc(C(=O)NC2CCN(CC(=O)Nc3cccc(C)c3C)CC2)cc(OC)c1OC	0.09	-1.1
NC(=O)c1c(NC(=O)c2cccnc2)sc2c1CCCCC2	0.58	-0.61
Cc1ccc(S(=O)(=O)CC(O)COc2ccc(F)cc2Cl)cc1 (stereo not given)	2.6	-0.3
CC(C)(CNC(=O)Cc1ccc(Br)cc1)N1CCOCC1	1.7	-1.6
Cc1cccc2sc(N(CCCN(C)C)C(=O)CN3C(=O)c4ccccc4C3=O)nc12	0.72	0
COc1ccc(C(=O)c2sc3nc(-c4ccc(OC)cc4)ccc3c2N)cc1	0.34	-0.82
COC(=O)Cc1ccc(NC(=S)N2CCCC(CO)C2)cc1 (stereo not given)	1	-0.01
CC(NC(=O)CN(C)Cc1nc2ccccc2c(=O)[nH]1)c1ccccc1 (stereo not given)	0.81	0.41
CSc1nc(C)cc(SCC(=O)N/N=C/c2ccccc2)n1	0.13	0.15
C=CCNc1nc(-c2ccc(Cl)cc2)cs1	0.47	1.3

# Exported with the structure last: entries from further up
KCNQ2 pot	KCNQ2 pot baseline	Molecule
1.5	0.72	Cc1[nH]c2ccccc2c1C(=O)NS(=O)(=O)Nc1ccc(F)cc1
1.5	0.07	COc1cc(/C=N/N2CCCCC2)cc([N+](=O)[O-])c1O

# 2 entries from above, reformatted:
# Screens in order – KCNQ2 pot | KCNQ2 pot baseline
COc1ccc(C(=O)c2sc3nc(-c4ccc(OC)cc4)ccc3c2N)cc1
→ 0.34 | -0.82
COC(=O)Cc1ccc(NC(=S)N2CCCC(CO)C2)cc1 (stereo not given)
→ 1 | -0.01

# (continued)
Compound	KCNQ2 pot	KCNQ2 pot baseline
COc1ccccc1C(=O)NNC(=O)C(=O)NC1CCCCC1	8.5*	0.52*
Cc1nc2ncnn2c(C)c1CCC(=O)N1CCc2ccccc21	0.34	-0.16
COc1cccc(C2C(C(=O)OC(C)C)=C(C)N=c3s/c(=C\c4ccc(C(=O)O)cc4)c(=O)n32)c1 (stereo not given)	0.2	-1.8
CCOC(=O)C(NC(=O)CC(C)C)(Nc1sc2c(c1C(N)=O)CCCC2)C(F)(F)F (stereo not given)	0.62	0.38
CC(C)c1ccc(O)c(NC(=O)c2cncc(Br)c2)c1	1	-0.27
N#CCCn1cc(C(=O)Nc2ccc(C(=O)O)cc2)c(-c2cc3ccccc3o2)n1	0.54	-0.2
CN1C(C(=O)NCc2cccc(C(F)(F)F)c2)CC2Cn3c(nc4cc(Cl)c(Cl)cc43)C21 (stereo not given)	2.6	1.5
O=C(CCSc1nnc(-c2ccncc2)o1)Nc1ccccc1Cl	0.95	0.88
CCOC(=O)c1c(C)c(C(=O)NCc2ccc(OC)cc2)c(C)n1C	0.15	-1.7
COc1cccc(NC(=S)NC2CC3CCCC(C2)N3C2CCCC2)c1 (stereo not given)	2.4	-0.79
CCN(CC)CCNC(=O)c1ccccc1C(=O)c1ncc[nH]1	0.04	0.06
Cc1cc(S(=O)(=O)Nc2ccccc2C(=O)O)ccc1Cl	0.35	2.7
NC(=O)C1CCN(C(c2ccccc2F)c2nnnn2Cc2ccco2)CC1 (stereo not given)	0.38	0.04
O=C(N/N=C/C(Cl)=C/c1ccccc1)c1ccncc1	0.81	-0.5
O=C(Cc1ccccc1)NNC(=S)Nc1ccccc1	0.81	-2.9
COc1cc(/C=C/c2ccc3cccc([N+](=O)[O-])c3n2)ccc1OCC(=O)O	0.28	-0.78
CC1CCC(C(C)C)C(OC(=O)COC(=O)c2cc(O)ccc2N)C1 (stereo not given)	0.16	-0.2
CS(=O)(=O)N(CC(=O)N1CCCCCC1)c1ccc2c(c1)OCCO2	1.1	-0.39
CC(C)(C)c1nnc(NS(C)(=O)=O)s1	1.1	-0.25
O=C1COCC(=O)N1CCc1c[nH]c2ccccc12	1.1	-1.4
Cc1oc(-c2cccs2)[n+]([O-])c1C	0.81	-0.93
COc1ccc(C(=O)NCCC(C)C)cc1S(=O)(=O)N1CCOCC1	1.6	0.24
COc1cc(C(=O)N2c3ccccc3CCC2C)cc(OC)c1OC (stereo not given)	0.01	0.79
CCOC(=O)C1=C(C)C/C(=N\NC(=O)c2ccccc2O)CC1	0.96	-1
COc1ccc(/C(=N/O)C(C)(C)NO)cc1	0.11	-0.79
Cc1cc2nc3n(c2cc1C)CC1CC(C(=O)NCCC(C)C)N(C)C31 (stereo not given)	0.96	0.16
CC(=O)Nc1ccc(NS(=O)(=O)c2cc(-c3cnc(C4CC4)o3)ccc2C)cc1	0.03	1.3
Cc1ccnc(NC(=O)CCC2CCCCC2)c1	1	-2.6
O=C(O)COC(=O)C1C(c2ccccc2)C(C(=O)O)C1c1ccccc1 (stereo not given)	0.03	1.1
CC12C=CC3(CN(Cc4ccccc4)C(=O)C3C1C(=O)NCc1ccco1)O2 (stereo not given)	0.2	-1.4
Cc1ccc(S(=O)(=O)NC2=NCN(CCOC(=O)c3ccccc3)CN2)cc1	1.3	-0.01
Cc1c(Cl)cccc1NC(=O)C1C2C=CC(C2)C1C(=O)O (stereo not given)	0.69	-0.02
COc1ccc(-c2nc(SC)n(C(=O)c3ccco3)n2)cc1	0.09	-0.04
COc1cccc(Nc2nc(N)c([N+](=O)[O-])c(N3CCOCC3)n2)c1	0.01	1.5
COc1cccc(CN2CCNC(=O)C2CC(=O)NCCCN2CCCC2=O)c1 (stereo not given)	0.1	0.46
Cc1csc(NC(=O)CSc2nnc(-c3ccco3)n2C)n1	0.14	0.98
Cc1cc(NC(=O)CN(C)S(=O)(=O)c2cnc[nH]2)ccc1Br	1.7	0.26
O=C(Nc1ccc(Br)cc1)C1CCC(=O)N1Cc1ccccc1Cl (stereo not given)	1.9	-0.83
CCCNC(=O)c1nc(C)n(-c2cc(Cl)cc(Cl)c2)n1	0.55	-0.39
O=C(Nc1ccc(C(F)(F)F)cc1)c1cc(S(=O)(=O)NCC2COc3ccccc3O2)ccc1F (stereo not given)	0.01	0.41
CCOc1ccc2[nH]c3c(=O)n(CCC4=CCCCC4)cnc3c2c1	0.78	-0.4
CCCN(CCC)C(=O)CSc1nc2n[nH]c(C)c2c(=N)n1-c1ccc(OC)cc1	0.68	0.23
Cc1ccc(CC(=O)O/N=C(\N)c2ccncc2)cc1	0.05	-0.29
COCCSc1ccccc1C(=O)N1CCc2ccccc21	1.1	-0.06
O=C(NCCCSc1ccccc1)c1cnc(Cl)c(Cl)c1	1.9	-1.9
CCOC(=O)c1sc(NC(=O)CSc2ncccn2)c(C#N)c1C	0.67	-0.67
O=C1CC(C(=O)N2CCCc3ccccc32)CN1c1ccc(F)cc1 (stereo not given)	0.01	-0.43
CC(C)OC(=O)CC(=O)c1sc2nc3c(cc2c1N)CN(C)CC3	0.07	0.61
CCc1cc(C(=O)OC)c(NC(=O)CC2NCCNC2=O)s1 (stereo not given)	0.96	-2.5
CCCCOc1ccc(CNC(=S)N/N=C/c2ccc(OC)c(OC)c2)cc1	0.05	0.05
CCSc1nnc(NC(=O)CSc2nnc(Cc3cccn3C)n2CCc2ccccc2)s1	0.15	0.19
COc1cc(C2c3c(-c4ccccc4)n[nH]c3C(=O)N2c2ccc(C(=O)O)cc2)ccc1O (stereo not given)	0.64	-1.6

# Gathered by group, the entries above containing bromine (5)
Compound	KCNQ2 pot	KCNQ2 pot baseline
CN(C(=O)c1ccc(Br)o1)C1(C)CCS(=O)(=O)C1 (stereo not given)	0.61	0.28
CC(C)(CNC(=O)Cc1ccc(Br)cc1)N1CCOCC1	1.7	-1.6
CC(C)c1ccc(O)c(NC(=O)c2cncc(Br)c2)c1	1	-0.27
Cc1cc(NC(=O)CN(C)S(=O)(=O)c2cnc[nH]2)ccc1Br	1.7	0.26
O=C(Nc1ccc(Br)cc1)C1CCC(=O)N1Cc1ccccc1Cl (stereo not given)	1.9	-0.83

# Screening results: PubChem BioAssay, Johns Hopkins Ion Channel Center

# The list is partial (hit frequency here may not be typical).
